Screens as filed in PubChem BioAssay.
SARS PLP yeast = qHTS of Yeast-based Assay for SARS-CoV PLP | S. cerevisiae expressing SARS-CoV PLpro, growth rescue; control for the full effect not named in the record | Potency, µM (titrated, usually from 32.9 µM), without a hit: at the highest dose activity, positive = growth rescue | 0.19% of 330,000 active; active means well fitted rising curve with a large enough effect; inconclusive means small, poorly fitted or top-dose-only effect; inactive means no such curve, though single readings can be large or run the other way; also: 0% is about no effect; nearly all actives have a fitted effect of over 55% in size; growth read by luminescence after 48 h
NS1 function inh = qHTS Assay for Inhibitors of Influenza NS1 Protein Function. Potency, µM (series often up to 46.1 µM), for the others: at the top dose activity, positive = more growth. S. cerevisiae slowed by influenza A NS1, growth recovery by OD600. 0.4% of 270,000 active. AID 2326, 2010; active means well fitted rising curve with a large enough effect; inconclusive means small, poorly fitted or top-dose-only effect; inactive means no such curve, though single readings can be large or run the other way; also: nearly all actives have a fitted effect of over 50% in size
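OD600 was taken as the measure of yeast growth restored by compound in an NS1-expressing S. cerevisiae strain. Cells had been washed out of glucose medium and diluted 1:100 into galactose -URA medium, pH 6.0.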
Cruzain noTriton = qHTS Assay for Promiscuous and Specific Inhibitors of Cruzain (without detergent). Cruzipain (Trypanosoma cruzi), P25779. purified cruzain, Z-FR-AMC fluorescence, no detergent. Potency, µM, inactives show max response, negative = inhibition, usual class: inhibitors. 2.3% of 200,000 active;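 also: plate controls were enzyme without inhibitor for no effect and buffer without enzyme for full effect; nearly all actives have a fitted effect of over 40% in size; top concentration of the series not given in the record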
Target sequence (P25779 123-467 limits assumed): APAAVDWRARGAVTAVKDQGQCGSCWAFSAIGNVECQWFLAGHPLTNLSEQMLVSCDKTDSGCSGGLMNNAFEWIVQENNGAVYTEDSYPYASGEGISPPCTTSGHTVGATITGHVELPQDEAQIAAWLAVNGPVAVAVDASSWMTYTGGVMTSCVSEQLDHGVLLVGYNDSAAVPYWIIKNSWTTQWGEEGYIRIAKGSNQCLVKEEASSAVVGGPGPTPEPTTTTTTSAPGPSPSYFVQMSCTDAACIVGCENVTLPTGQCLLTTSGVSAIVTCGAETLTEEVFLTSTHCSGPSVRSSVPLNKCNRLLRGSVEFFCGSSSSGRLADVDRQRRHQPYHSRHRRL
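Detergent-free condition (0.00005% Triton X-100) in acetate buffer pH 5.5 with DTT. 1.5 nM enzyme and compound were pre-mixed 15 min, then 2 uM Z-FR-AMC substrate added; reaction progress from fluorescence change between first and third reads (60 s).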
LASV entry inh = qHTS for Inhibitors of binding or entry into cells for Lassa Virus | Lassa virus pseudotype entry inhibition, cell reporter; control for the full effect not named in the record | Potency, µM (series often up to 37.9 µM), for the others: top-dose activity change, negative = inhibition, actives largely listed as inhibitors | 1.2% of 300,000 active | AID 540256, 2011; active means well fitted inhibition curve with a large enough effect; inconclusive means small, poorly fitted or top-dose-only effect, or effect the other way; inactive means flat fitted curve, though single readings scatter; tested in HEK293 cells; also: % is scaled to controls: 0 for no effect and ±100 for the full control effect; nearly all actives have a fitted effect of over 50% in size; luciferase read-out
Marburg entry inh = qHTS for inhibitors of binding or entry into cells for Marburg Virus. 1.8% of 300,000 active. AID 540276, 2011. Marburg virus pseudotyped entry inhibition, cell reporter; control for the full effect not named in the record; about a third of the inactives were read at about 46 µM. Potency, µM (top dose mostly 37.8 µM), for the others: at the highest dose activity change, negative = inhibition, actives largely listed as inhibitors; active = well fitted inhibition curve with a large enough effect; inconclusive = small, poorly fitted or top-dose-only effect, or effect the other way; inactive = flat fitted curve, though single readings scatter; tested in HEK293 cells; about a fifth of its hits are not listed in these tables; also: % is scaled to controls: 0 for no effect and ±100 for the full control effect; luciferase read-out
Cruzain Triton = qHTS Assay for Promiscuous and Specific Inhibitors of Cruzain (with detergent). purified cruzain, Z-FR-AMC fluorescence, 0.01% Triton. AID 1478, 2009. 0.43% of 200,000 active. Cruzipain (Trypanosoma cruzi), P25779. Potency, µM, without a hit: max response, negative = inhibition, usual class: inhibitors;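 also: plate controls were neutral wells for no effect and buffer without enzyme for full effect; nearly all actives have a fitted effect of over 40% in size; top concentration of the series not given in the record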
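Z-FR-AMC hydrolysis (2 uM substrate) by cruzain (1.5 nM) monitored kinetically at ex 360/em 450 nm after 15 min room-temperature compound exposure; 0.01% Triton X-100, pH 5.5, 5 mM DTT.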
RE007 growth inh = qHTS Assay for Inhibitors of the HIV-1 protein Vpr. AID 651644, 2012. S. pombe RE007 Vpr strain, BacTiter-Glo ATP luminescence, 24 h; control for the full effect not named in the record. 0.21% of 360,000 active. Potency, µM (top dose mostly 92.2 µM), for the others: top-dose activity change, negative = less growth; active = well fitted falling curve with a large enough effect; inconclusive = small, poorly fitted or top-dose-only effect; inactive = no such curve, though single readings can be large or run the other way;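 also: % is scaled to controls: 0 for no effect and ±100 for the full control effect; nearly all actives have a fitted effect of over 50% in size; the assay follows cell death caused by Vpr and the record does not say whether a fall means rescue or toxicity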
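Fission yeast RE007 carrying one integrated HIV-1 vpr copy, seeded at OD 0.01 in PMG+AL medium with 23 nL pinned compound. Grown 24 h at 30 degrees; viability read by BacTiter-Glo luminescence after 5 min.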
StopGo reporter = High Throughput Screening for Foot and Mouth Disease Virus Antivirals | human cells with a luciferase reporter of 2A StopGo recoding; control for the full effect not named in the record | Potency, µM (highest dose often 57.9 µM), without a hit: at the highest dose signal change, negative = less light | 1.2% of 410,000 active | AID 1159524, 2015; active = well fitted falling curve with a large enough effect; inconclusive = small, poorly fitted or top-dose-only effect; inactive = no such curve, though single readings can be large or run the other way; tested in HEK293T cells; also: % is scaled to controls: 0 for no effect and ±100 for the full control effect; nearly all actives have a fitted effect of over 45% in size; luciferase light after 4 h
An asterisk follows results filed as active; ? = inconclusive; . = no result given; & = joins results of further samples; [ ] = another dose, or the depositor's remark. Unless noted, calls follow the shape of the dose curve; as a rule, active = well fitted curve in the direction sought with a large enough effect; inconclusive = small, poorly fitted or top-dose-only effect, or another doubt; inactive = no such curve, though single readings can be large; an effect the other way counts as inactive or inconclusive. Potency is read from the fitted curve at half-maximal effect.

SMILES | SARS PLP yeast | NS1 function inh | Cruzain noTriton | LASV entry inh | Marburg entry inh | Cruzain Triton | RE007 growth inh | StopGo reporter
Cc1ccc(Cl)cc1NC(=O)CN1CCOCC1 | . | . | . | 12% | 10% | . | -3% | 3%
COc1ccc(C(=O)CN2C(=O)c3ccccc3C2=O)c(OC)c1C | 0% | -18% | 2% | 9% | 5% | -3.0% | 2% | -6%
C=C(C)Cn1c(-c2cccc([N+](=O)[O-])c2)n[nH]c1=S | 1% | . | . | . | -5%[46.1 µM] | . | 8% | -15%
O=C(Nc1cccnc1)c1ccc(Cl)c([N+](=O)[O-])c1 | -9% | . | . | 6% | 12%[14.2 µM] | . | 3% | -23%
Cc1ccc(C(=O)c2c(N)c(C(=O)Nc3cccc(C(F)(F)F)c3)c3ccccn23)cc1 | . | . | ? | -3%[46.1 µM] | 7%[46.1 µM] | 5.3% | . | -18%
COc1ccc(Cl)c(NC(=O)NCCN2CCN(c3ccccc3)CC2)c1 | -4% | 0% | -15% | 3% | 17% | -2.7% | 2% | 0%
Cc1ccccc1C(=O)Nc1ccc(C(=O)N/N=C/c2ccc(O)c(Br)c2)cc1 | 1% | 6% | . | ? | -13%[46.1 µM] | . | -3% | 0%
CC(C)(C)c1cc(CN2CCN(CCC#N)CC2)cc(C(C)(C)C)c1O | -5% | -3% | 10% | 2% | 0% | 3.5% | 2% | -8%
CCN(CC)c1ncnc2ccc(Br)cc12 | -4% | -40% | -2% | -1% | -3% | 1.8% | -14% | 0%
COc1ccccc1/C=C1\SC(=S)N(CCC(=O)NCCc2ccc(O)cc2)C1=O | -3% | 17% | . | ? | ? | . | ? | -14%
O=C(CN1C(=O)CSC1=O)Nc1ccccc1F | 11% | -6% | 0% | 46% | 6% | 6.3% | 5% | 12%
Cn1cnc(S(=O)(=O)N2CCN(c3cccc(C(F)(F)F)c3)CC2)c1 | 13% | ? | . | ? | 1%[46.1 µM] | . | 13% | -14%
COc1ccc(NC2CCCN(C(=O)CSc3ccccc3)C2)cc1 (stereo unspecified) | -5% | 2% | . | . | . | . | -14% | 1%
COC(=O)CSc1nc2c(cnn2-c2ccc(F)cc2)c(=O)[nH]1 | 0% | -1% | -3% | ? | 3% | 0.1% | 6% | -20%&-13%
O=C(Nc1ccc(-c2ccccc2)cc1)c1ccccc1 | -4% | 4% | . | . | . | . | -1% | -10%
CCn1c(SCC(=O)Nc2nnc(C)s2)nnc1C(C)NC(=O)c1ccccc1 (stereo unspecified) | -1% | 7% | . | -7% | 1%[46.1 µM] | . | -26% | 15%
COc1ccc(-c2nnc(NC(=O)c3ccc(S(=O)(=O)N4CCCc5ccccc54)cc3)o2)cc1 | 10% | -44% | -23% | ? | ? | -0.5% | -14% | -17%
O=C(Nn1cnc2ccccc2c1=O)c1ccccc1 | 0% | -3% | . | 13% | -9%&-9%[46.1 µM] | . | 10% | 37%[activator]
CC(=O)Nc1ccc(OCC(O)CNC2CCCC2)cc1 (stereo unspecified) | 7% | ? | -5% | -7% | -3% | 1.8% | -15% | 5%
CSCc1cc(N2CCCC2)nc(-c2ccccc2)n1 | 0% | . | . | -2% | 3%[46.1 µM] | . | -24% | -9%
O=C(Nc1ccc(NC(=O)C2CC2)nc1)c1cccnc1 | 9% | -3% | -5% | -1% | 13%[46.1 µM] | 2.3% | 26% | 14%
Cn1c(=O)oc2cc(S(=O)(=O)NCCc3ccccc3)ccc21 | 6% | -5% | 5% | 7% | 1% | 0.7% | -9% | 72%[activator]
C[C@@H]1CCC(=O)N(CC[C@H](Oc2ccccc2)c2ccccc2)CC1 | 5% | -18% | . | . | . | . | 0% | 8%
Cc1cc(/C=C2\C(=O)NC(=O)N(c3ccc(Cl)cc3)C2=O)c(C)n1C | 1% | 5% | . | . | . | . | -1% | -12%
COc1ccc(N2CCN(C(=O)c3ccc(CNS(=O)(=O)c4ccc(C)cc4)cc3)CC2)cc1 | -1% | 6% | . | ? | ? | . | 5% | -28%
COc1ccc(-c2n[nH]c(=S)n2-c2ccccc2C)cc1OC | -5% | 14% | . | 1%[46.1 µM] | -2%[46.1 µM] | . | -22% | -8%
Cc1ccc(C)c(OCCC(=O)OCC(=O)Nc2cccnc2Cl)c1 | . | . | . | -10% | 22% | . | -18% | -30%
CC(=O)c1ccccc1NC(=O)C1C2CCC(O2)C1C(=O)O (stereo unspecified) | -1% | 0% | 0% | . | . | 9.2% | . | .
CCOc1ccc(C(=O)c2cn(CC(=O)Nc3cc(OC)ccc3OC)c3cc(OC)c(OC)cc3c2=O)cc1 | . | . | 0% | 7%[46.1 µM] | 0%[46.1 µM] | -2.5% | . | 0%
O=C(O)/C=C/C(=O)N1N=C(c2ccco2)CC1c1ccco1 (stereo unspecified) | -1% | 3% | . | ? | ? | . | -10% | -10%
O=C(Nc1cccc(-c2cn3ccccc3n2)c1)c1cnccn1 | 2% | -4% | -2% | 2% | ? | -6.9% | -1% | 13%
CCn1ccnc1CN1CCCC(CO)(Cc2cccc(OC)c2)C1 (stereo unspecified) | 0% | 5% | . | . | 18%[46.1 µM] | . | -1% | -15%
Cc1cccc2sc(N(CCCN(C)C)C(=O)c3ccc(S(=O)(=O)N4CCc5ccccc5C4)cc3)nc12 | -4% | 6% | . | ? | ? | . | 6% | -17%
CCOc1ccc(-n2nc3ccc(NC(=O)c4ccc(-c5cccc(Cl)c5)o4)cc3n2)cc1 | . | . | 3% | 4%[46.1 µM] | . | -0.8% | . | -24%
COc1cc(NC(=O)CCc2c(C)n(C)c3cc(-c4ccccc4C)nn3c2=O)cc(OC)c1OC | . | . | 2% | -5%[46.1 µM] | . | 0.5% | . | -20%
O=S(=O)(c1ccccc1)c1nc(-c2cccs2)oc1N1CCCCC1 | . | . | 0% | 25%[46.1 µM] | -20%[46.1 µM] | 0.3% | . | 21%
CCCn1nnnc1NCc1cccc(OC)c1OCC | -5% | 0% | . | . | . | . | 12% | -9%
COC(=O)c1ccc(S(=O)(=O)NNC(=O)COc2ccc(C)cc2)cc1 | ? | 6% | -20% | 9% | -21% | -5.1% | 23% | 36%[activator]
COc1cc(CN(CCN(C)C)Cc2ccccc2)ccc1OCc1ccccc1 | 4% | -16% | . | ? | ? | . | -4% | -10%
O=C(c1ccccc1)c1coc(-c2ccccc2)c1 | . | . | . | ? | -16% | . | -21% | -24%
Cc1ccc(C(=O)NCCNC(=O)c2ccco2)cn1 | 2% | 7% | . | 11%[46.1 µM] | -1%[46.1 µM] | . | 3% | -11%
Brc1ccc(-c2csc(N3CCc4ccccc4C3)n2)cc1 | 0% | -1% | -20% | 25% | -1%[46.1 µM] | 0.0% | -10% | 34%[activator]
Cc1nc2ccccc2nc1N1CCCC1 | 1% | 11%&0% | 1% | 3% | 17%&17%&17%[46.1 µM] | 6.2% | -22% | 2%
COc1ccc(-c2cc3cc(OC)c(OC)cc3c(C)n2)cc1 | -2% | -38% | . | -2% | -16%[46.1 µM] | . | -14% | 30%[activator]
CC(=O)Nc1nc(CCN2C(=O)c3ccccc3C2=O)cs1 | -2% | . | . | -1% | 9%[46.1 µM] | . | 43% | 0%
Cc1ccc(/C=N/NC(=O)NC23CC4CC(CC(C4)C2)C3)o1 | -2% | 1% | . | -26% | -16% | . | 23% | 21%
O=C(COc1ccccc1)N1CCN(C(=O)Cc2ccccc2)CC1 | ? | 7% | 2% | 13% | -8% | 5.3% | 5% | -2%
O=[N+]([O-])c1cccc(NP(=O)(Oc2ccccc2)Oc2ccccc2)c1 | -4% | 12% | . | . | . | . | -1% | -14%
CCOc1ccccc1N(CC(=O)NC1CCCCC1)C(=O)CCCC(=O)Nc1ccccn1 | -1% | -14% | 7% | -1% | -11%&-11% | -0.6% | -18% | 35%[activator]
CCn1c(C(=O)NCc2cc(Br)ccc2OC)cc2oc3ccccc3c21 | . | . | 32µM* | . | 2.8µM* | -5.4% | . | -18%
CNS(=O)(=O)c1cn(CC(=O)NCc2ccc(N(C)C)cc2)cc1S(=O)(=O)NC | -1% | -2% | . | 22% | ? | . | 3% | 4%
Cc1nc2ccc(-c3ccccc3)cc2o1 | -22% | 3% | 1% | 18% | 13%[46.1 µM] | -0.9% | -18% | 36%[activator]
C/C(=N\NS(=O)(=O)c1ccccc1)c1ccc2c(c1)OCO2 | -1% | . | . | 1%[46.1 µM] | -12%[46.1 µM] | . | 6% | 47%[activator]
CCCCN(C(=O)c1cccc(C)c1)c1c(N)n(CCC)c(=O)[nH]c1=O | 9% | -7% | . | -21%[46.1 µM] | 11%[46.1 µM] | . | 7% | 6%
CCOc1c(Cl)cc(C(=O)N(Cc2ccc(N(C)C)cc2)Cc2ccco2)cc1Cl | . | . | ? | ? | 5%[46.1 µM] | -6.6% | . | -18%
CCOC(=O)c1cnc2ccc(C)cc2c1Nc1ccc(N2CCOCC2)cc1 | -4% | -26% | -4% | ? | ? | -1.7% | -20% | 0%
COc1ccccc1NC(=O)CN1C(=O)CSC(C)C1=O (stereo unspecified) | -2% | -2% | 19% | 2% | -27% | 0.5% | -1% | 1%
CC(=O)c1ccc(OCCN2CCOCC2)cc1 | -3% | 12% | 5% | 4% | ? | 9.3% | 6% | 14%
COc1cc(/C(O)=C(\C#N)c2nc3ccccc3[nH]2)cc(OC)c1OC | 0% | ? | . | . | . | . | 8% | -9%
COc1ccc(/C=C2\SC(=S)N(CC(=O)Nc3nnc(C)s3)C2=O)cc1 | -7% | 24% | 16µM* | 9% | 9% | -14% | 3% | 20%
COc1cccc(C2CC(c3cccs3)=NN2C(=O)CSc2nc3c(cnn3-c3ccc(F)cc3)c(=O)[nH]2)c1OC (stereo unspecified) | 2% | ? | ? | 10% | 3% | 3.5µM* | -2% | ?
Cc1cc(C(=O)NC2CC(C)(C)Cc3c2cnn3-c2ccccc2)n[nH]1 (stereo unspecified) | 0% | 15% | . | . | . | . | 11% | 13%
